# Autofluor counter: compound fluorescence in toxin protease inhibitor counterscreen. compound autofluorescence counterscreen, microsphere flow cytometry; active compounds read high. fluorescence intensity (no concentration beside the values). 360,000 compounds, 3.1% hits. AID 624483;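 active = at least 3 SD above the mean of all compounds, about 16000 in these data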;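 note: 100 nL of 1 mM stock went into each well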
# PrP 5UTR inh: inhibition of PrP 5' UTR reporter expression; 340,000 compounds, 0.35% hits; cell-based PrP 5' UTR mRNA reporter, plate reader; inhibition, % (no concentration beside the values);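 active = every replicate at 50% or more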;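 note: 0 = median of the neutral control wells; tested in H4 reporter cells; numbers are from one replicate; inactives centre near -14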
# Mtb hypoxia rep: Mtb hypoxia fluorescent reporter inhibition; fluorescence inhibition, % (concentration not given with the values); M. tuberculosis hypoxia-regulated fluorescent reporter, fluorescence; 300,000 compounds, 0.1% hits; AID 1159583;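 active = 35 to 45% if threefold the growth effect, above 45% if 1.5-fold the growth effect; inactive = the rest, general growth blockers included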;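 note: wells of about 50 µL received 100 nL stock; 0% = vehicle wells and 100% = reference inhibitor wells; whole bacteria with a GFP reporter of the hypoxia response; strong numbers were not always called active; many hits fall short of the cut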
# ugtP null kill: compounds lethal to S. aureus RN4220 ugtP deletion mutant. OD600 growth, 16 h; some inactives read as strong as hits. growth inhibition, % (concentration not given with the values). 330,000 compounds, 0.54% hits. AID 1259309;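 active = z-score under -3 and OD600 up to 0.15 on both plates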;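 note: plate controls were untreated wells for no effect and antibiotic for full effect; wells of about 80 µL received 100 nL stock; the first replicate is given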
# Sa RN4220 lethal: S. aureus RN4220 growth inhibition; OD600, 16 h; inhibition, % (no concentration beside the values); 330,000 compounds, 0.33% hits;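 active = z-score of -3 or lower and OD600 up to 0.18 on both plates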;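 note: plate controls were untreated cells for no effect and reference antibiotic for full effect; stock transfer was 100 nL into about 80 µL; one replicate is shown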
# BJeLR lethal: kills HRASV12-expressing BJeLR cells; BJeLR (HRASV12) viability, CellTiter-Glo ATP luminescence, 48 h; reference of the scale not given here; inhibition, % (test concentration not listed); 300,000 compounds, 0.17% hits; AID 1554;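 active = replicate mean above 50%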;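 note: 50 nL library stock added to about 25 µL; numbers are from one replicate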
# Mtb hypoxia rep growth: also measured in Mtb hypoxia rep; calls as there; growth inhibition, %; measured here: M. tuberculosis growth (absorbance);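 0% = vehicle and 100% = reference antibiotic; read after six days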
# * marks the source's active call; other numbers are inactive results; · = not tested or not shown. Outcome played no part in choosing rows; any-hit rate near 4%.
# Start of the data: the first 2 records, to show the layout:
SMILES,Autofluor counter,PrP 5UTR inh,Mtb hypoxia rep,Mtb hypoxia rep growth,ugtP null kill,Sa RN4220 lethal,BJeLR lethal
Cc1ccc(C)c(N2N=C(C(=O)OCc3nnc(-c4cccs4)o3)CCC2=O)c1,5732,-4,-11,2,2,3.3,·
Cc1cc(C)n(/N=C/c2cc(Cl)cc(Cl)c2O)c(=O)c1,4502,-23,·,·,·,·,-3

# This part in full (from the top)
SMILES,Autofluor counter,PrP 5UTR inh,Mtb hypoxia rep,Mtb hypoxia rep growth,ugtP null kill,Sa RN4220 lethal,BJeLR lethal
Cc1ccc(C)c(N2N=C(C(=O)OCc3nnc(-c4cccs4)o3)CCC2=O)c1,5732,-4,-11,2,2,3.3,·
Cc1cc(C)n(/N=C/c2cc(Cl)cc(Cl)c2O)c(=O)c1,4502,-23,·,·,·,·,-3
COc1cc2c3c(c1)C1(C(=O)N3C(C)(C)C=C2C)C(C#N)=C(N)Oc2cc(O)ccc21 (configuration not stated),3333,4,5,5,-14,-0.9,-1
CCc1ccccc1-n1c(SCC(=O)N2CCCC2)nnc1-c1ccccn1,4151,-14,15,5,3,6.9,-22
COc1cccc(C=NNC(=O)c2ccoc2C)c1,·,·,3,5,-1,-0.5,·
CC(C)C(NC(=O)c1ccc(C(C)(C)C)cc1)C(=O)NCC(c1ccccc1)N(C)C (configuration not stated),4661,-23,9,1,9,2.5,1
N#Cc1c(N=Cc2ccc(Br)s2)sc2c1CCC2,·,·,8,0,5,1.8,·
COc1ccc2[nH]c(C(=O)O)c(CCNC(C)=O)c2c1,3646,-20,-3,8,-11,-10,6
CC(=NNc1cc(C(F)(F)F)ccc1Cl)c1ccccc1O,·,·,2,7,15,0.0,·
C(=NN1CCN(c2ccccc2)CC1)c1ccccc1,·,·,4,4,0,-4.7,·
COc1ccc(CN(C)C(=O)c2[nH]c(C)c(C(C)=O)c2C)cc1F,3246,-14,3,11,2,-0.5,-4
CCOc1ccc(-n2c(C)c(C(=O)OC)c3cc(O)ccc32)cc1,4843,-11,-10,16,-9,-1.6,1
COc1ccc(CCNC(=O)c2cc(S(=O)(=O)N3CCCC3)cn2C)cc1OC,5988,-14,-8,-1,-4,-3.4,1
CCC(=O)Nc1cccc(-c2nnc(-c3cccc(NC(=O)CC)c3)o2)c1,9623,-12,12,10,-7,1.9,8
C1=CCC(CN2CCN(C3CCCCCC3)CC2)CC1 (configuration not stated),3858,-11,7,2,0,1.3,1
CC1Sc2ccc(S(=O)(=O)CCC(=O)Nc3ccccc3Cl)cc2NC1=O (configuration not stated),5188,-76,-1,5,13,2.7,0
COc1ccccc1/C=C/C(=O)Oc1cccc2cccnc12,2248,-8,·,·,·,·,-4
CCOC(=O)N1CCN(Cc2ccccc2Cl)CC1,22232*,-44,5,7,7,4.7,·
CCN(c1ccccc1)S(=O)(=O)c1ccc(Cl)c(C(=O)O)c1,3785,-34,-2,8,-1,-2.0,-4
Cc1cc(C)nc(NS(=O)(=O)c2ccc(NC(=O)c3nn(-c4ccccc4)ccc3=O)cc2)n1,5095,-11,20,11,0,1.1,0
CC(NS(C)(=O)=O)c1nnc2n1-c1ccc(Br)cc1C(c1ccccc1Cl)=NC2 (configuration not stated),4475,5,6,5,0,4.2,-7
CC(=O)c1ccc(OCCCC(=O)Nc2cccc(-c3nn[nH]n3)c2)cc1,4776,-6,-1,-6,-1,-4.4,-4
Cc1cc(NC(=O)CSc2ccc(Cl)cc2)no1,22791*,-17,1,1,55,1.5,-6
CSCc1c(C(=O)N2CCCc3ccccc32)oc2ccccc12,8638,-22,12,-4,11,6.1,·
Cc1onc(-c2ccccc2)c1C(=O)NN=Cc1cc(Br)c(O)c(Br)c1,·,·,-1,-3,5,12,·

# Six compounds from above, limited to PrP 5UTR inh.
SMILES | PrP 5UTR inh
CCOc1ccc(-n2c(C)c(C(=O)OC)c3cc(O)ccc32)cc1 | -11
COc1ccc(CCNC(=O)c2cc(S(=O)(=O)N3CCCC3)cn2C)cc1OC | -14
CCC(=O)Nc1cccc(-c2nnc(-c3cccc(NC(=O)CC)c3)o2)c1 | -12
C1=CCC(CN2CCN(C3CCCCCC3)CC2)CC1 (configuration not stated) | -11
CC1Sc2ccc(S(=O)(=O)CCC(=O)Nc3ccccc3Cl)cc2NC1=O (configuration not stated) | -76
COc1ccccc1/C=C/C(=O)Oc1cccc2cccnc12 | -8

# Going on with the list:
SMILES,Autofluor counter,PrP 5UTR inh,Mtb hypoxia rep,Mtb hypoxia rep growth,ugtP null kill,Sa RN4220 lethal,BJeLR lethal
CCCCSCCCNC(=O)C1CCC(CNS(=O)(=O)c2ccccc2)CC1 (configuration not stated),3959,12,3,8,12,-0.9,1
CCN(CC)C(=O)C1CCCN(C(=O)Nc2ccc3nsnc3c2)C1 (configuration not stated),3160,-4,2,7,-8,2.8,2
CC1CCN(c2ccc(-c3ccc(NC(=O)c4ccco4)cc3)nn2)CC1,4584,-57,18,1,8,4.0,1
O=C(O)CCC(=O)Nc1ccc(S(=O)(=O)c2ccc(NC(=O)CCC(=O)O)cc2)cc1,2909,-7,-6,2,10,6.1,-16
COc1ccc2c(C(=O)c3ccc(C)cc3)n(CCCC(N)=O)[n+]([O-])c2c1,3873,-25,5,8,7,8.3,-8
Nc1n[nH]c(N)c1N=Nc1cccc(C(F)(F)F)c1,3350,-45,8,9,-2,1.6,8
CCc1cc(C(=O)N/N=C/c2c(C)[nH]c3ccccc23)cs1,2408,-9,·,·,·,·,-5
CCOC(=O)c1ccccc1NC(=O)C=C(C)C,2385,-1,1,5,2,3.6,4
CC(C)(O)C#Cc1ccc(CN2CCCC(CO)(Cc3cccc(Cl)c3)C2)cc1 (configuration not stated),5292,-8,2,0,-5,2.6,1
CCOC(=O)C(=O)c1csc(NC(=O)COc2ccc(N(C)S(=O)(=O)c3ccc(F)cc3)cc2)n1,3238,11,3,4,4,0.3,1
O=C(CCCn1c(=S)[nH]c2ccccc2c1=O)N1CCOCC1,9968,-23,7,7,1,2.9,-2
CCNC(=O)NC1c2ccccc2CSc2ccccc21 (configuration not stated),·,-22,5,1,-3,1.4,9
Cc1ccc(NC(=O)COC(=O)COc2ccc3ccc(=O)oc3c2)cc1[N+](=O)[O-],3546,-16,14,11,11,2.6,·
COc1ccc(NC(=O)CSc2c3c(nc4ccccc24)CCC3)c(OC)c1,7980,-16,1,3,-11,1.0,-5
O=C(Cn1nnc(-c2ccc(Cl)cc2)n1)NCc1ccco1,2048,-24,1,3,4,-1.7,2
Cc1ccc(C)c(NC(=O)CCc2nnc3ccc(N4CCCC4)nn23)c1,5138,-16,-5,3,12,6.6,-1
COc1cccc(OC)c1OCCNCC1COc2ccccc2O1 (configuration not stated),5759,-28,2,4,-2,4.2,0
CC(=O)Oc1cccc(N2C(=O)c3ccc(C(=O)Nc4c[nH]c(=O)[nH]c4=O)cc3C2=O)c1,2431,-10,13,0,11,7.0,-8
CCOC(=O)c1cccc(C2=CC(=O)CC(c3ccc(Cl)cc3)C2)c1 (configuration not stated),·,·,2,2,-3,-7.9,·
CCc1nnc(NC(=O)CSc2nnc(Cc3ccccc3)n2-c2ccc(OC)cc2)s1,4142,-12,18,5,2,4.2,-6
CCn1cc(Br)c(C(=O)Nc2nccs2)n1,1979,-24,16,3,1,5.6,-5
CC(NC(=O)CN1CCOCC1)c1ccc(F)cc1 (configuration not stated),3252,-14,-2,-10,15,0.0,-4
CCCCCNC(=O)c1cccc(S(=O)(=O)N2CC3(C)CC2CC(C)(C)C3)c1 (configuration not stated),5577,1,2,5,-4,0.5,-2
CCOC(=O)c1cc(=O)cc(C(=O)OCC)o1,4343,-23,11,7,1,3.9,6
CN(Cc1nc2ccccc2c(=O)[nH]1)C(=O)c1cc2c(s1)CCCCC2,3786,-14,-1,6,0,0.0,·
# (next part)
SMILES,Autofluor counter,PrP 5UTR inh,Mtb hypoxia rep,Mtb hypoxia rep growth,ugtP null kill,Sa RN4220 lethal,BJeLR lethal
O=C(CCc1ccccc1)NCCCNC(=O)CCc1ccccc1,4091,-10,13,5,5,1.3,·
Cc1cccc(NC(=O)c2cnc3sccn3c2=O)c1,4699,-41,5,8,14,0.7,5
OCc1nc2ccccc2n1Cc1c(F)cccc1Cl,4117,-10,6,-1,5,-0.8,1
CCOc1ccc(NC(=O)c2cccc(NC3=NC4CS(=O)(=O)CC4S3)c2)cc1 (configuration not stated),6047,-48,7,8,4,-9.8,3
CCOc1ccc(CCNC(=O)COC(=O)Cc2ccc(F)cc2)cc1OCC,4281,-13,9,0,13,3.3,1
COc1ccc(/C=C2\N=C(C)N(c3ccc4ccccc4c3)C2=O)cc1OC,2692,-15,5,-1,-1,7.8,1
Cc1cc(OCCCCN2C(=O)NC(C)(C)C2=O)ccc1[N+](=O)[O-],4549,4,10,9,6,2.7,-4
COc1ccc(N(C(=O)Cn2nnc3ccccc32)C(C(=O)NC(C)(C)C)c2ccc(OC)c(O)c2)cc1 (configuration not stated),3628,-22,-1,0,9,2.5,3
CCOC(=O)CC(=O)NC(CC(=O)OC)c1ccc(Br)cc1 (configuration not stated),4889,-20,9,-3,5,3.5,-2
CC(=O)c1cccc(NC(=O)COC(=O)CC2CC3CCC2C3)c1 (configuration not stated),3726,-27,-3,5,1,1.4,·
O=C(c1ccccc1F)N1CCN(c2ccc([N+](=O)[O-])c(N3CCOCC3)c2)CC1,4314,-11,6,4,11,8.5,-5
Cc1cc(C)nc(-n2nc(C)cc2NC(=O)CNCc2ccccc2)n1,7018,-4,·,·,·,·,2
COc1ccc2nc3oc(C(=O)NC4CCN(Cc5ccccc5)CC4)cc3cc2c1,3134,-24,7,19,18,0.4,·
CCOC(=O)CN(C(=O)COc1nc(-c2ccccc2)cc(C)c1C#N)c1cccc(OC)c1,5388,-15,2,-5,-20,-1.9,-3
Cc1ccccc1CN1C[C@@H]2C[C@@H](c3cnc(N4CCOCC4)s3)N3CCC[C@@]23C1=O,3039,-7,·,·,·,·,-7
CCCC(=O)c1ccc(N2CCN(S(=O)(=O)c3ccc(C)cc3)CC2)c(F)c1,6755,-20,10,1,25,9.7,4
O=C(CN1C(=O)c2cccnc2Oc2ccc(Cl)cc21)Nc1ccc(F)cc1,7329,-5,·,·,6,0.7,-7
Oc1ccccc1OCCOc1ccccc1OCCOc1ccccc1O,4341,-10,0,-7,9,6.1,0
Cc1cc(/C=C(\C#N)C(=O)Nc2ccc(Cl)cc2)c(C)n1-c1ccc(N2CCOCC2)c([N+](=O)[O-])c1,10356,-17,-1,2,10,12,16
CCOCCCNC(=O)CCS(=O)(=O)Cc1ccc(C)cc1,7926,-12,1,1,10,4.2,0
O=C(O)c1ccc(Nc2ncnc3scc(-c4ccccc4)c23)cc1,3305,-13,9,6,-5,3.1,-8
Cc1cc(C)cc(OCC(=O)OCC(=O)c2cc(C)n(C3CC3)c2C)c1,4974,12,3,1,8,1.6,2
Cc1ccc(-n2cc(S(=O)(=O)c3ccc(C)cc3)[nH]c2=O)cc1,4486,-15,2,4,9,7.9,2
CCN(CC)C(=O)CSc1nc(Cc2ccccc2)nc2ccccc12,4268,-18,4,-4,1,1.2,12
CCCC=C(CCC)C(NC(=O)c1ccc(C(F)(F)F)cc1)c1ccccc1 (configuration not stated),·,·,2,6,7,-2.6,·
# (next part)
SMILES,Autofluor counter,PrP 5UTR inh,Mtb hypoxia rep,Mtb hypoxia rep growth,ugtP null kill,Sa RN4220 lethal,BJeLR lethal
CCOc1ccccc1NC(=O)Cn1nc(-c2ccco2)ccc1=O,3985,1,-4,-4,-2,-0.3,-6
CCC1(C)N([O-])C(C)=C(c2ccccc2)[N+]1=O (configuration not stated),2738,-17,·,·,-4,2.1,-2
CC1CN(C(=S)Nc2ccc(S(N)(=O)=O)cc2)CC(C)O1 (configuration not stated),4289,-2,6,-3,4,1.1,-2
CCN(CC)CCn1c(SCC(=O)NCCC2=CCCCC2)nc2c(sc3ccccc32)c1=O,3165,-29,18,5,6,1.1,-2
Cc1c(C)c2c(OCC(=O)O)cc3c(c2oc1=O)CCC(C)(C)O3,4092,-11,10,4,9,7.5,2
CC(=O)/C(=N\Nc1ccc(C)cc1)N1CCOCC1,9884,-20,·,·,·,·,-3
COc1ccc2nc3ccccc3nc2c1NC(=O)c1ccccc1Cl,3449,-40,7,16,-6,-3.6,10
Cc1cc(C(=O)COC(=O)c2ccncc2)c(C)n1Cc1ccco1,3611,-19,-2,-4,0,-4.2,-11
Cc1ccc(C)c(COC(=O)c2cccc(S(=O)(=O)N3CCCC3)c2)c1,·,-13,2,-1,22,2.4,·
O=C(c1ccc([N+](=O)[O-])cc1)N1CCN(C(=O)c2ccco2)CC1,3972,-15,-4,0,-2,1.5,-15

# High-throughput results deposited in PubChem by several laboratories.
